High-throughput results as filed in PubChem.
AF4-AF9 inh – blocks AF4 peptide binding to human AF9; P42568; AlphaScreen, biotin-AF4 peptide binding to FLAG-AF9; inhibition, % at 10 µM; actives 0.47% (n = 350,000); AID 651704;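 active = every replicate reaching a set inhibition limit, whatever the replicate mean, cut at about 25% in these data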;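 also: 0% = plate neutral control median and 100% = total signal loss; the record names both 10 and 1 µM as test concentration; the first replicate is given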
Target sequence (P42568 whole entry, looked up): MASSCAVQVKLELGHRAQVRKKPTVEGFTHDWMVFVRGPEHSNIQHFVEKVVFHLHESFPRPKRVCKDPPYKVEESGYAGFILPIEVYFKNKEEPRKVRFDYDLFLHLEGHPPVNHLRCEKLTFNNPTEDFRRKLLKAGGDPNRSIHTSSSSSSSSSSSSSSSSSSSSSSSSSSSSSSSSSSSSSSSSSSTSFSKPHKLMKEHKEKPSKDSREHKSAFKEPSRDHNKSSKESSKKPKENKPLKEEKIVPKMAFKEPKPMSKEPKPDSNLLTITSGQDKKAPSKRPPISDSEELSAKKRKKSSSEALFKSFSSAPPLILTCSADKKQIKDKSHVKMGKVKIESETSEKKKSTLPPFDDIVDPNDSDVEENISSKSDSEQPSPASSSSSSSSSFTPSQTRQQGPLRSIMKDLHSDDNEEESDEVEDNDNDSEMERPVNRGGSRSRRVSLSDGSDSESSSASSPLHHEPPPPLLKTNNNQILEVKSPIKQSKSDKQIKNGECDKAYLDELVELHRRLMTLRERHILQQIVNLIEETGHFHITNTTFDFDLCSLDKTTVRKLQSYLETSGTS
rRNA inh HTS – inhibits bacterial ribosomal RNA function over humanized ribosomes; GFP signal change (wild-type ribosome), % (concentration not given with the values); actives 1.6% (n = 350,000); E. coli WT GFP vs humanized-ribosome RFP mutants, fluorescence, 24 h; hits give low values; DMSO median 0, no signal -100;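 active = significant combined selectivity score with lowered wild-type GFP, culture density cut under 30%, mutant RFP and density less affected; inactive = any of these conditions unmet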; also: one replicate is shown; some compounds called inactive have numbers as strong as hits
rRNA inh HTS OD600 – also measured in rRNA inh HTS; calls as there; OD600 change, %; measured here: OD600 growth;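 optical density of the mix in the first replicate; 0 = DMSO median and -100 = no signal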
rRNA inh HTS RFP – further read-out of rRNA inh HTS, marked with its call; RFP signal change, %; measured here: RFP humanized mutant strains;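 first replicate; 0 = DMSO median and -100 = no signal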
The depositor's hits bear a star; & = joins results of further samples. Some of the compounds tested. The share of hits here may be higher or lower than overall.

AF4-AF9 inh	rRNA inh HTS	rRNA inh HTS OD600	rRNA inh HTS RFP	SMILES
4.1	1	-2	-3.2	C[C@@H]1CCCCO[C@H](CN(C)C(=O)Nc2cccc3ccccc23)[C@H](C)CN([C@@H](C)CO)C(=O)c2cc(NS(=O)(=O)c3ccc(F)cc3)ccc2O1
-0.4	0	-2	-1.7	CCCN1[C@@H]2Cn3c(ccc(-c4cccc(F)c4)c3=O)[C@H]1[C@@H](C(=O)NCC)[C@@H]2CO
9.1	3	11	0.6	COc1ccc2c3c(n(C)c2c1)[C@H](CO)N(C(=O)C1CCCCC1)CC31CCN(C)CC1
7.2	-1	-9	-0.1	COc1ccc(CN(C)C[C@@H]2OCCCC[C@@H](C)Oc3ccc(NC(=O)c4ccccc4)cc3C(=O)N([C@H](C)CO)C[C@H]2C)cc1
-4.9	-2	-4	0.6	Cc1cccc(-c2ccc(C3[C@@H]4CN(C(=O)C5CCOCC5)C[C@H]3N4)cc2)c1 (some centres undefined)
-0.5	-2	0	-4.5	COc1ccc2c3c(n(C)c2c1)[C@@H](CO)N(S(=O)(=O)c1ccc(C)cc1)CC31CN(S(=O)(=O)c2ccc(C)cc2)C1
-3.4	4	2	-3.7	O=C(C1CCOCC1)N1CC(=O)N2[C@@H](CO)[C@@H](c3ccc(-c4cccnc4)cc3)[C@@H]2C1
4.9	6	25	0.4	Fc1cccc(-c2ccc(C3[C@H]4CNC[C@@H]3N4Cc3cccnc3)cc2)c1 (some centres undefined)
-2.0	-3	-1	-1.0	O=C(Nc1ccc(F)cc1)N[C@@H]1CC[C@H](CCNC(=O)c2ccccc2F)O[C@H]1CO
2.1	-1	0	-1.8	C[C@H](CO)N1C[C@H](C)[C@H](CN(C)C(=O)c2ccccc2)OCCCC[C@H](C)Oc2ccc(N(C)C)cc2C1=O
-5.8	-9	-19	-3.9	Cc1csc(SCC(=O)Nc2cc(F)ccc2C)n1
-0.4	1	5	-2.7	CC(C)NC(=O)N1CC(=O)N2[C@H](CO)[C@H](c3ccc(C#CCN(C)C)cc3)[C@H]2C1
2.3	0	-3	2.7	CC(C)CC#Cc1ccc([C@H]2[C@@H](CO)N3C(=O)CN(C(=O)c4cnccn4)C[C@@H]23)cc1
2.1	6	-7	6.0	O=C(c1ccccc1F)N1CC(=O)N2[C@H](CO)[C@@H](c3ccc(-c4ccccc4)cc3)[C@H]2C1
-4.7	-36	-68	0.2	O=C(C1CCC1)N1CC[C@H]2[C@H](CO)Nc3ccc(-c4cccc(F)c4)cc3[C@H]21
-0.2	4	-1	3.1	O=C(C1CCCCC1)N1CC(=O)N2[C@H](CO)[C@@H](c3ccc(C#CCc4ccccc4)cc3)[C@H]2C1
7.2	-17	-41	15	CCS(=O)(=O)N1CC(=O)N2[C@H](C1)[C@@H](c1ccc(C#CCC3CCCC3)cc1)[C@@H]2CO
-4.6	2	1	-2.0	CCC(=O)N1C[C@H](C)[C@@H](OC)CN(C)C(=O)c2ccc(NC(=O)COC)cc2OC[C@@H]1C
-2.1	0	19	2.3	C/C=C/c1ccc([C@@H]2[C@H](CO)N(C(=O)c3ccccc3)C23CN(C(C)=O)C3)cc1
-1.9	-7	-31	2.4	CC(C)c1cccc(NC(=O)C[C@H]2CC[C@H]3[C@@H](COc4ccc(NC(=O)c5ccc(C#N)cc5)cc4C(=O)N3C)O2)c1
-6.1	1	3	-0.5	CCCNC(=O)Nc1ccc2c(c1)OC[C@@H](C)N(C(C)=O)C[C@@H](C)[C@H](OC)CN(C)C2=O
0.9	2	-9	4.6	O=C(c1cnccn1)N1CC(=O)N2[C@@H](CO)[C@@H](c3ccc(C#CC4CCCCC4)cc3)[C@@H]2C1
-2.4	3	9	-2.6	CCCNC(=O)N1CC2(C1)CN(C(=O)CC1CC1)[C@@H](CO)c1[nH]c3cc(OC)ccc3c12
-2.0	8	-2	-2.5	O=C(C1CCOCC1)N1CC(=O)N2[C@H](CO)[C@H](c3ccc(-c4cccnc4)cc3)[C@@H]2C1
-0.4	2	1	-2.6	O=C(C[C@@H]1C[C@@H]2c3cc(NC(=O)C4CCOCC4)ccc3O[C@@H]2[C@@H](CO)O1)NCC1CC1
-0.6	2	5	1.2	Cc1ccc(-c2ccc([C@H]3[C@H](CO)N4C(=O)CN(C(=O)Cc5ccccn5)C[C@@H]34)cc2)cc1
9.9	-36	-61	13	O=C(C1CCCC1)N1CC(=O)N2[C@H](C1)[C@@H](c1ccc(C#CC3CCCC3)cc1)[C@@H]2CO
0.4	-4	2	1.1	O=C(Nc1ccccc1)N1CC(=O)N2[C@H](CO)[C@@H](c3ccc(C#Cc4cccnc4)cc3)[C@H]2C1
-1.6	1	-1	-1.9	CO[C@H]1CN(C)C(=O)c2ccc(NS(=O)(=O)c3ccccc3)cc2OC[C@H](C)N(C)C[C@H]1C
0.7	7	1	3.9	C[C@@H]1CCCCO[C@@H](CN(C)C(=O)Nc2cccc3ccccc23)[C@@H](C)CN([C@@H](C)CO)C(=O)c2cc(NC(=O)Cc3ccccc3)ccc2O1
-1.8	0	1	0.3	C[C@H](CO)N1C[C@H](C)[C@H](CN(C)Cc2ccncc2)Oc2c(NC(=O)C3CCOCC3)cccc2C1=O
-0.3	0	-7	0.2	CO[C@@H](CN(C)S(=O)(=O)c1ccc(F)cc1)[C@@H](C)CN(C(=O)Nc1ccccc1F)[C@H](C)CO
1.1	4	12	-4.4	CCC(=O)N1CC2(CN(C(=O)c3cccnc3)C2)c2c([nH]c3cc(OC)ccc23)[C@@H]1CO
-19	3	2	0.0	CCC(=O)N1[C@H](C#N)[C@H](c2ccccc2-c2ccccc2)[C@H]1CO
-43	-18	-38	-4.1	Nc1nc(=O)n(C2CC(O)C(CO)O2)cc1F (centres undefined)
-2.1	2	-3	0.5	N#C[C@H]1[C@@H](c2ccccc2-c2cccc(F)c2)[C@H](CO)N1C(=O)C1CC1
-1.0	-1	5	-2.4	CO[C@@H]1CN(C)C(=O)c2ccc(NC(C)=O)cc2OC[C@@H](C)NC[C@@H]1C
-3.2	0	-5	2.8	COc1ccc(-c2ccc([C@H]3[C@@H](CO)N4C(=O)CN(C(=O)C5CCC5)C[C@@H]34)cc2)cc1
-0.3	3	-2	0.6	O=C(C[C@@H]1CC[C@@H](NC(=O)Cc2cccnc2)[C@H](CO)O1)Nc1ccccc1
-2.5	-35	-56	15	O=C(Nc1ccc(Cl)cc1)N1C[C@@H]2[C@H](c3ccccc31)[C@H](CO)N2C(=O)c1cccnc1

Filtered by structure, those above containing an NH in an aromatic ring.
AF4-AF9 inh	rRNA inh HTS	rRNA inh HTS OD600	rRNA inh HTS RFP	SMILES
-2.4	3	9	-2.6	CCCNC(=O)N1CC2(C1)CN(C(=O)CC1CC1)[C@@H](CO)c1[nH]c3cc(OC)ccc3c12
1.1	4	12	-4.4	CCC(=O)N1CC2(CN(C(=O)c3cccnc3)C2)c2c([nH]c3cc(OC)ccc23)[C@@H]1CO

More records.
AF4-AF9 inh	rRNA inh HTS	rRNA inh HTS OD600	rRNA inh HTS RFP	SMILES
-9.3	-4	0	-0.8	CCCNC(=O)N1CC(=O)N2[C@H](C1)[C@@H](c1ccc(-c3ccc(F)cc3)cc1)[C@@H]2CO
-0.6	-3&1	-2&6	1.3&-2.5	N#Cc1cccc(-c2ccc(C3[C@@H]4CN(C(=O)C5CCOCC5)C[C@H]3N4)cc2)c1 (some centres undefined)
-3.1	0	-11	-2.1	COC(=O)[C@@H]1[C@@H](CO)[C@@H]2Cn3c(cccc3=O)[C@@H]2N1CC1CCCC1
-6.4	0	-4	1.3	Cc1noc(C)c1S(=O)(=O)Nc1ccc2c(c1)C(=O)N([C@H](C)CO)C[C@H](C)[C@@H](CN(C)C(=O)c1ccccc1)OCCCC[C@H](C)O2
-5.1	3	8	-3.1	CC(C)NC(=O)N1[C@@H](CO)[C@@H](c2ccccc2)C12CN(C(=O)c1ccccn1)C2
-3.1	0	13	-4.5	COc1ccc2c3c(n(C)c2c1)[C@@H](CO)N(C(=O)NC(C)C)CC31CCN(C(C)=O)CC1
-3.7	4	3	-3.2	CO[C@H]1CN(C)C(=O)c2ccc(NC(=O)NC(C)C)cc2OC[C@H](C)N(C)C[C@@H]1C
1.2	-3	3	1.2	COc1ccc2c3c([nH]c2c1)[C@@H](CO)N(CC1CC1)CC31CN(C(=O)c2ccc(F)cc2)C1
-2.0	3	7	-1.5	O=C(NC1CCCCC1)[C@H]1[C@H](CO)[C@H]2Cn3c(ccc(-c4ccccc4)c3=O)[C@@H]1N2
-2.4	-3	-1	0.1	CCC(=O)N(C)C[C@H]1[C@@H](c2ccc(C3=CCCCC3)cc2)[C@@H](CO)N1C(C)=O
8.3&2.9	7&2	-23&5	2.3&5.0	CN(C)C(=O)c1cccc(-c2ccc(C3[C@H]4CNC[C@@H]3N4Cc3cccc(C(F)(F)F)c3)cc2)c1 (some centres undefined)
1.3	-36	-72	-1.2	O=C(Nc1cccc(F)c1)N1CC(=O)N2[C@H](CO)[C@@H](c3ccc(-c4cccc(F)c4)cc3)[C@H]2C1
6.1	2	-1	3.1	C/C=C/c1ccc([C@H]2[C@H]3CN(Cc4ccc(C)cc4)CC(=O)N3[C@H]2CO)cc1
-3.3	-2	-4	-0.6	COc1ccc2c3c([nH]c2c1)[C@@H](CO)N(Cc1ccc(F)cc1)CC31CN(C(=O)NC(C)C)C1
0.9	0	-2	-3.9	O=C(NCC1CC1)[C@@H]1[C@@H](CO)[C@@H]2Cn3c(ccc(-c4cccc(F)c4)c3=O)[C@@H]2N1CC1CC1
-3.0	4	5	-1.7	Cc1noc(C)c1NC(=O)Nc1ccc2c(c1)C(=O)N([C@H](C)CO)C[C@H](C)[C@H](CN(C)Cc1ccccc1)OCCCC[C@@H](C)O2
-2.0	2	5	-0.8	Cc1ccccc1-c1ccc([C@H]2[C@H](CO)N3C(=O)CN(S(C)(=O)=O)C[C@@H]23)cc1
-3.7	4	-2	3.5	O=C(Nc1cccc(F)c1)N1CC(=O)N2[C@@H](CO)[C@H](c3ccc(C#CCC4CCCC4)cc3)[C@@H]2C1
-14	-4	-3	-1.4	Cc1noc(C)c1NC(=O)N(C)C[C@@H]1OCCCC[C@H](C)Oc2ccc(NS(=O)(=O)c3ccc(Cl)cc3)cc2C(=O)N([C@@H](C)CO)C[C@H]1C
1.1&10	-30&-57	-50&-78	-0.4&-12	COc1ccccc1-c1ccc(C2[C@@H]3CN(S(=O)(=O)c4ccccc4C)C[C@H]2N3)cc1 (some centres undefined)
-1.1&12	-61&-60	-72&-74	-12&-19	O=C(Nc1cccc(F)c1)N1C[C@@H]2N[C@H](C1)C2c1ccc(-c2ccccc2F)cc1 (some centres undefined)
2.1	-25	-40	29	O=C(C[C@@H]1CC[C@H]2[C@@H](COC[C@@H](O)CN2Cc2cc(F)ccc2F)O1)NCc1ccc(Oc2ccccc2)cc1
-2.8&3.5	8&7	2&29	6.9&4.4	CN(C)C(=O)c1cccc(-c2ccc(C3[C@H]4CNC[C@@H]3N4Cc3ccccn3)cc2)c1 (some centres undefined)
-2.2	5	3	-0.5	CNC[C@@H]1Oc2c(NC(=O)C3CC3)cccc2C(=O)N([C@@H](C)CO)C[C@H]1C
-3.4&1.4	4&2	4&3	0.0&-1.0	C/C=C/c1ccc(C2[C@H]3CNC[C@@H]2N3S(=O)(=O)c2ccccc2OC)cc1 (some centres undefined)
-2.6	6	12	-2.9	COc1ccc(NC(=O)N(C)C[C@@H]2Oc3ccc(NC(=O)c4ccncc4)cc3C(=O)N([C@H](C)CO)C[C@@H]2C)cc1
-4.2	-4	-11	-0.9	O=C(C[C@@H]1C=C[C@H](NC(=O)Cc2cccnc2)[C@H](CO)O1)Nc1ccc(-c2ccccc2)cc1
-1.4	1	-2	-2.6	COC(=O)C[C@@H]1CC[C@H]2[C@@H](COc3ccc(NC(=O)c4ccc(F)c(F)c4)cc3C(=O)N2C)O1
4.2	-1	5	5.1	CN(C)C(=O)c1cccc(-c2ccc(C3[C@@H]4CN(Cc5ccc6c(c5)OCO6)C[C@H]3N4)cc2)c1 (some centres undefined)
-3.6	3	5	0.0	CNC[C@@H]1Oc2c(NC(=O)NC(C)C)cccc2C(=O)N([C@@H](C)CO)C[C@H]1C
15	2	-2	-1.8	O=C(c1cccnc1)N1CC(=O)N2[C@H](CO)[C@@H](c3ccc(-c4ccc(F)cc4)cc3)[C@H]2C1

Four entries from above, with each value named:
COc1ccccc1-c1ccc(C2[C@@H]3CN(S(=O)(=O)c4ccccc4C)C[C@H]2N3)cc1 (some centres undefined)
  AF4-AF9 inh = 1.1&10; rRNA inh HTS = -30&-57; rRNA inh HTS OD600 = -50&-78; rRNA inh HTS RFP = -0.4&-12

C/C=C/c1ccc([C@@H]2[C@H](CO)N(C(=O)c3ccccc3)C23CN(C(C)=O)C3)cc1
  AF4-AF9 inh = -2.1; rRNA inh HTS = 0; rRNA inh HTS OD600 = 19; rRNA inh HTS RFP = 2.3

C[C@H](CO)N1C[C@H](C)[C@H](CN(C)C(=O)c2ccccc2)OCCCC[C@H](C)Oc2ccc(N(C)C)cc2C1=O
  AF4-AF9 inh = 2.1; rRNA inh HTS = -1; rRNA inh HTS OD600 = 0; rRNA inh HTS RFP = -1.8

CO[C@H]1CN(C)C(=O)c2ccc(NC(=O)NC(C)C)cc2OC[C@H](C)N(C)C[C@@H]1C
  AF4-AF9 inh = -3.7; rRNA inh HTS = 4; rRNA inh HTS OD600 = 3; rRNA inh HTS RFP = -3.2
